High-throughput results from PubChem BioAssay.
HNF4A DNA FP = change in binding of human HNF4 alpha to DNA. P41235. HNF4a-FITC DNA binding, fluorescence polarization, 1 h. activity change, % at 10 µM. 360,000 tested, 0.3% active; in the data active means activity change above about 30%, passing the limit was not always enough;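 further: controls were the assay level and a saturating level of protein; the project sought stronger binding though the title names inhibitors; some compounds called inactive have numbers as strong as hits; positive values seem to mean higher polarization but the record does not say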
FGF22 binding = FGF22 (human) thermal shift binding; Q9HCT0; recombinant FGF22 thermal shift, SYPRO orange fluorescence; percent of sucrose octasulfate shift, DMSO zero; calls only at 9.99 µM; 340,000 tested, 1.5% active; AID 651658;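 active means melting point raised past a set limit in the mean and every replicate; three in four hits are not shown here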
Target sequence (Q9HCT0 whole entry, looked up): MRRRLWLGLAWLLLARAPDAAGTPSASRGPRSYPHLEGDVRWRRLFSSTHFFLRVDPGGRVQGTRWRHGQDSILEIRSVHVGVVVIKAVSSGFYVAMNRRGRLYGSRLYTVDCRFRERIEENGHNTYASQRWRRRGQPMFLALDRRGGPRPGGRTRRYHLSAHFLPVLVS
Beta2AR agonist = agonists of human beta-2 adrenergic receptor inducing internalization. P07550. Am2.2-beta2AR cells, FAP receptor internalization, flow cytometry; reference of the scale not given here. response, % (no concentration beside the values). 340,000 tested, 0.43% active. AID 504454;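 active means response above a set limit, near 3 SD of response in nonfluorescent compounds, cut at about 42% in these data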;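 further: stock transfer was 100 nL into about 11 µL; a reference agonist was the positive control; negative values mostly stem from fluorescent compounds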
rRNA inh HTS = selective bacterial rRNA inhibition in E. coli. E. coli WT GFP vs humanized-ribosome RFP mutants, fluorescence, 24 h; hits give low values; DMSO median 0, no signal -100. GFP signal change (wild-type ribosome), % (test concentration not listed). 350,000 tested, 1.6% active. AID 720706;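 active means significant combined selectivity score with lowered wild-type GFP, culture density cut under 30%, mutant RFP and density less affected; inactive means any of these conditions unmet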; further: one replicate is shown; some compounds called inactive have numbers as strong as hits
UCH37 inh = human UCH37 deubiquitinating enzyme inhibition | Q9Y5K5 | purified proteasome/UCH37, Ub-AMC cleavage fluorescence | inhibition, % (no concentration beside the values) | 330,000 tested, 0.33% active;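 active means mean of two replicates above 20%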;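 further: 0% = compound-free wells with enzyme and 100% = wells lacking proteasome; stock transfer was 100 nL into about 20 µL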
Target sequence (Q9Y5K5 whole entry, looked up): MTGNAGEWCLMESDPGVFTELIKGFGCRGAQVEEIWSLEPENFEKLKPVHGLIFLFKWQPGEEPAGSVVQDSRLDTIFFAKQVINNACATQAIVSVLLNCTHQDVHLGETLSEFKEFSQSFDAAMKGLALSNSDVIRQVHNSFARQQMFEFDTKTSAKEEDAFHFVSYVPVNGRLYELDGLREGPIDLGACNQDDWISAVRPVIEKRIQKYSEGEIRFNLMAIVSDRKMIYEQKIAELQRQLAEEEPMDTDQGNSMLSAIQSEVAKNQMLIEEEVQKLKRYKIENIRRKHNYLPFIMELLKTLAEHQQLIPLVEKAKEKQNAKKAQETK
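Test system – human UCH37 enzyme supplied as purified proteasome complex · Incubation – 30 min preincubation with enzyme, 25 min cleavage at room temperature · Detection – AMC fluorescence from Ub-AMC cleavage, excitation 355 nm, emission 460 nm · Benchmarks – no-proteasome wells (full inhibition) and compound-free wells (no inhibition)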
ALR inh = human ALR oxidase inhibition via reduced H2O2; P55789; purified ALR, DTT oxidation, H2O2 HRP-luminol luminescence; inhibition, % (no concentration beside the values); 290,000 tested, 3.8% active; AID 485317;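 active means mean and each replicate at 75% or more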;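 further: stock transfer was 7.5 nL into about 7.5 µL; 0% = neutral wells and 100% = wells with inactivated enzyme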
Target sequence (P55789 whole entry, looked up): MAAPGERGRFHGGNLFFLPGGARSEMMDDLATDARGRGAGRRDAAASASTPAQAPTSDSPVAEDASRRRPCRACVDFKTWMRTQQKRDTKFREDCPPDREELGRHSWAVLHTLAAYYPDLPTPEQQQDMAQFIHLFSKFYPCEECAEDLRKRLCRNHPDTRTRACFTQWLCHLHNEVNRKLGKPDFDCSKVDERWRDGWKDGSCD
Ecoli growth = inhibitors of Escherichia coli growth | OD600, 23 h; hits give low values | OD600 absorbance (concentration not given with the values) | 330,000 tested, 0.21% active;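 active means OD600 absorbance below the run mean of sample wells minus 3.6 SD, in any replicate, cut at about 0.56 in these data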;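 further: stock transfer was 300 nL into about 60 µL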
rRNA inh HTS OD600 = second read-out of rRNA inh HTS, no call of its own (marks repeat the call); OD600 change, %; measured here: OD600 growth;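 optical density of the mix in the first replicate; 0 = DMSO median and -100 = no signal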
rRNA inh HTS RFP = recorded beside rRNA inh HTS, whose call it bears; RFP signal change, %; measured here: RFP humanized mutant strains;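 first replicate; 0 = DMSO median and -100 = no signal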
* marks the source's active call; other numbers are inactive results; i = inactive; nt = no result given; + = active, no number; & = joins results of further samples.

SMILES | HNF4A DNA FP | FGF22 binding | Beta2AR agonist | rRNA inh HTS | rRNA inh HTS OD600 | rRNA inh HTS RFP | UCH37 inh | ALR inh | Ecoli growth
N#Cc1cnn(Cc2ccccc2)c1N | 0.5 | nt | 5 | nt | nt | nt | 0.2 | -5 | 0.71
N#Cc1ccc(C(=O)NC2CCCCCCC2)cc1 | 8.7 | i | -5 | -2 | 9 | -2.4 | 5.8 | -3 | 0.71
O=C(Nc1ccc(Br)cn1)c1coc(=O)c(Br)c1 | -6.2 | i | -1 | -2 | 4 | -4.1 | -15 | -1 | 0.66
CC(=O)Nc1ccc(S(=O)(=O)NNC(=O)CCC(=O)Nc2cc(C)ccc2C)cc1 | -4.6 | i | 1 | 20 | 9 | -5.3 | 4.9 | 50 | 0.69
CN(CC(=O)N1CCCC1)S(=O)(=O)c1cc(Cl)ccc1Cl | 2.9 | nt | -5 | nt | nt | nt | 2.8 | -5 | 0.65
COc1cccc(C(=O)N2CCN(Cc3ccc4c(c3)OCO4)CC2)c1OC | 3.2 | nt | 6 | nt | nt | nt | 1.9 | -4 | 0.7
O=C(O)C1CCCCC1C(=O)Nc1ccccc1Nc1ccccc1 (stereo unspecified) | 2.4 | nt | 9 | nt | nt | nt | 0.7 | 99* | 0.74
O=C(NCCS(=O)(=O)N1CCN(c2ccccc2)CC1)C12CC3CC(CC(C3)C1)C2 | 2.9 | i | nt | -11 | -39 | -5.9 | nt | nt | nt
CC(=O)c1cc(C(=O)Nc2ccccc2C(=O)O)oc1C | 0.3 | nt | 1 | nt | nt | nt | 1.9 | 1 | 0.71
COc1ccc(C(=O)NC2CCN(Cc3ccccc3)C2)cc1S(=O)(=O)N1CCOCC1 (stereo unspecified) | 1.0 | i | -3 | nt | nt | nt | 1.6 | -5 | 0.63
CN1CCC(CNC(=O)Nc2csc3ccccc23)CC1 | 3.1 | i | -4 | nt | nt | nt | 1.4 | 14 | 0.64
c1ccc2c(c1)Oc1cccc3cccc-2c13 | 0.3 | nt | 5 | 10 | 12 | -0.9 | -178 | -6 | 0.66
COc1ccc(S(=O)(=O)N2CCC(C(=O)N[C@H](C(=O)NCc3ccco3)C(C)C)CC2)cc1 | -7.8 | i | 8 | -1 | 3 | -0.5 | 2.1 | 0 | 0.66
CCOC(=O)C1=NN(c2ccccc2C)C2=NC(C)=C(C(=O)OC)C(c3cccs3)N12 (stereo unspecified) | 2.6 | nt | 0 | nt | nt | nt | 2.6 | -1 | 0.73
COc1cc(CNn2c(C)n[nH]c2=S)cc(Cl)c1OCc1ccccc1 | 3.8 | i | -5 | -20 | -21 | 5.3 | 2.1 | 56 | 0.7
O=C(Oc1nsnc1N1CCOCC1)N1CCCCC1 | -2.5 | i | 0 | 6 | 1 | -4.1 | 2.5 | -7 | 0.67
CC(C)(C)c1ccc(C(=O)NNc2cc(N3CCOCC3)nc(N3CCOCC3)n2)cc1 | 0.8 | i | 2 | 4 | -1 | 0.5 | -0.7 | -20 | 0.71
COc1ccc(CCN(C)C(=O)C2CCCN(Cc3ccc(OC)c(OC)c3)C2)cc1OC (stereo unspecified) | 0.6&0.7 | i | -2&4 | 20 | 20 | 1.3 | 2.0&2.1 | -15&1 | 0.7&0.76
Cc1ccccc1N(C(=O)c1snc(C(N)=O)c1N)C(C(=O)NCC1CCCO1)c1ccc(F)cc1 (stereo unspecified) | -1.9 | i | 1 | 2 | -6 | 3.8 | -485 | -4 | 0.64
COc1ccc(NC(=O)c2cc3c(=O)n(C)c4ccccc4c3n2C)cc1OC | -3.0 | i | 37 | 3 | 2 | -0.8 | 3.3 | -23 | 0.78
Cc1ccccc1NC(=O)c1ccc(C)c(S(=O)(=O)Nc2ccccn2)c1 | -3.5 | i | 0 | 5 | -4 | -7.2 | -15 | 0 | 0.67
O=[N+]([O-])c1ccc(C(O)C[n+]2ccccc2)cc1 (stereo unspecified) | 0.5 | nt | -3 | nt | nt | nt | 1.7 | -8 | 0.65
CC(C)(C)OC(=O)NCCCC[C@@H](C(=O)N1CCN(C(=O)OC(C)(C)C)CC1)n1cc(CCC(=O)O)nn1 | -1.6 | i | 2 | 14 | 14 | -0.2 | 3.5 | -9 | nt
COc1cc(C(=O)OCC(=O)N2CCN(S(=O)(=O)c3ccc(C)cc3C)CC2)c([N+](=O)[O-])cc1OC | 1.7 | i | 3 | -2 | -5 | 0.5 | 1.6 | nt | 0.66
CCOC(=O)C1CCN(C(=O)C(C)Oc2ccc(C(=O)c3ccccc3)cc2)CC1 (stereo unspecified) | 0.5 | i | 8 | 2 | -11 | 1.4 | 4.2 | -1 | 0.69
CC1(C)CCC(=O)N2CC[C@H]3C[C@H](OC(=O)Nc4ccccc4)C[C@@H]1[C@H]32 | -3.8 | + | -1 | 5 | 0 | -1.6 | 2.1 | 1 | 0.77
COC(=O)c1ccccc1NC(=O)CN(C)S(=O)(=O)c1ccc(OC)c(C)c1 | -4.3 | nt | 1 | nt | nt | nt | 2.6 | nt | 0.6
CC(C)CC(=O)N1CCN(CC2CC=CCC2)CC1 (stereo unspecified) | -2.5 | nt | -2 | nt | nt | nt | 0.4 | -8 | 0.66
COc1ccc(C(=O)N/N=C(\C)CC(=O)Nc2cccc(C(F)(F)F)c2)cc1 | -2.5 | i | 1 | -4 | 1 | -0.4 | nt | -4 | nt
O=C1CN(C(=O)COC(=O)[C@@H]2CCCN2S(=O)(=O)c2ccc(Cl)cc2)c2ccccc2N1 | -1.1 | i | -4 | -9 | -16 | 9.2 | 0.6 | nt | 0.67

Reprinted at random: two compounds from above, in no set order.
SMILES | HNF4A DNA FP | FGF22 binding | Beta2AR agonist | rRNA inh HTS | rRNA inh HTS OD600 | rRNA inh HTS RFP | UCH37 inh | ALR inh | Ecoli growth
CCOC(=O)C1CCN(C(=O)C(C)Oc2ccc(C(=O)c3ccccc3)cc2)CC1 (stereo unspecified) | 0.5 | i | 8 | 2 | -11 | 1.4 | 4.2 | -1 | 0.69
COC(=O)c1ccccc1NC(=O)CN(C)S(=O)(=O)c1ccc(OC)c(C)c1 | -4.3 | nt | 1 | nt | nt | nt | 2.6 | nt | 0.6

Carrying on.
SMILES | HNF4A DNA FP | FGF22 binding | Beta2AR agonist | rRNA inh HTS | rRNA inh HTS OD600 | rRNA inh HTS RFP | UCH37 inh | ALR inh | Ecoli growth
COCCC(=O)N1CCC(Oc2ccc(C(=O)N3CCC(N(C)C)C3)cc2)CC1 (stereo unspecified) | -1.5 | i | 2 | 9 | 11 | -1.8 | 2.0 | -48 | 0.71
O=C(NC(=S)Nc1cccc(-c2ccc(CO)o2)c1)c1cccs1 | -0.6 | i | 0 | 7 | 13 | 3.9 | 1.2 | 47 | 0.69
O=C(NN=C1CCCC1)C1COc2ccccc2O1 (stereo unspecified) | 2.3 | i | -4 | -4 | -4 | -3.7 | -0.1 | 5 | 0.68
O=C(Nc1ccc(Nc2ccccc2)cc1)c1ccc(F)cc1 | -0.3 | i | 10 | -21* | -14* | 2.4* | nt | 50 | nt
COCC(O)CSc1nc(C)[nH]c1[N+](=O)[O-] (stereo unspecified) | 2.2 | nt | -6 | nt | nt | nt | 7.4 | 7 | 0.66
N#Cc1c2n(c(=S)n(-c3ccc(F)cc3)c1=O)CCCCC2 | -3.6 | i | 19 | 1 | 1 | -2.9 | 2.2 | -6 | 0.72
COc1ccccc1NC(=O)Nc1ccc(C(=O)N2CCCCC2)cc1 | -1.0 | i | 2 | -12 | 3 | 0.2 | 2.4 | -5 | 0.67
CCCOP(=O)(c1ccc(N(C)C)cc1)C(O)c1ccccc1OC (stereo unspecified) | -0.4 | nt | -2 | nt | nt | nt | 3.1 | 19 | 0.72
O=C(CC1Oc2ccccc2NC1=O)NCc1ccccc1 (stereo unspecified) | 2.1 | i | -5 | 5 | 7 | 1.0 | 1.8 | -51 | 0.74
O=c1c(Cl)c(Cl)cnn1Cc1ccccc1Cl | nt | nt | nt | nt | nt | nt | 3.9 | 95* | 0.65
COc1ccc(OCCn2c(C)nc3ccccc32)cc1 | -5.2 | i | nt | 5 | -15 | 9.8 | nt | nt | nt
Cn1c(=O)c(-c2ccccc2)nc2ccccc21 | -0.8 | nt | -26 | nt | nt | nt | -194 | -4 | 0.71
O=C(O)CCc1ccc(S(=O)(=O)Nc2ccccc2N2CCCCC2)cc1 | 0.7 | i | 3 | -5 | -8 | 2.0 | 0.8 | 63 | 0.66
Cc1ccc([C@@H]2CC(=O)[C@@H]3CN(S(=O)(=O)c4ccc(C)cc4)[C@H](c4ccccc4F)C[C@@H]3N2S(=O)(=O)c2ccc(Cl)cc2)cc1 | 1.0 | nt | nt | 7 | 18 | 1.9 | nt | nt | nt
COc1ccc(-n2c3c(cc(C(=O)N4CCN(CCO)CC4)c2=O)C(=O)CC(C)(C)C3)cc1 | 3.3 | nt | -6 | nt | nt | nt | 0.8 | -3 | 0.68
Cc1ccc(N=Cc2nc(/C=C/c3cccc([N+](=O)[O-])c3)oc2O)cc1 | 7.0 | i | 2 | 9 | 8 | -1.0 | 6.4 | -7 | 0.76
CC1CN(c2ccnc3cc(Cl)ccc23)CC(C)O1 (stereo unspecified) | -0.2 | i | -3 | -3 | -3 | -1.6 | 2.8 | -1 | 0.69
CCOC(=O)N(C)c1c(CC)nc2c(OCc3ccccc3C)cccn12 | -0.7 | i | nt | -1 | -10 | 5.2 | nt | nt | nt
Cc1ccccc1CN(C)CCS(=O)(=O)c1cc(Cl)ccc1Cl | 0.3 | i | -10 | 2 | -14 | 0.2 | nt | -1 | nt
CC(=O)c1ccc(Nc2nc(C(N)CCc3ccccc3)cs2)cc1 (stereo unspecified) | 1.0 | i | nt | 6 | -35 | 41 | nt | nt | nt
O=C(Nc1ccccc1)OCCOc1cccc(Br)c1 | 0.6 | i | 1 | -11 | -56 | 14 | 0.3 | -2 | 0.67
CC(C)NS(=O)(=O)c1ccc(CCC(=O)NCc2ccco2)cc1 | -2.3 | nt | 1 | nt | nt | nt | 3.3 | -2 | 0.7
Cc1nn(-c2ccccc2Cl)c(Cl)c1/C=N/Nc1cccc(C(=O)O)c1 | 0.2 | nt | -4 | nt | nt | nt | nt | 25 | nt
O=C(Cn1c(-c2ccccc2)noc1=O)Nc1ccc(S(=O)(=O)N2CCOCC2)cc1 | 0.3 | nt | 6 | nt | nt | nt | 3.3 | nt | 0.68
O=C1C2C3C=CC(C3)C2C(=O)N1CN(Cc1ccccc1)CN1C(=O)C2C3C=CC(C3)C2C1=O (stereo unspecified) | 2.1 | nt | -4 | nt | nt | nt | 1.9 | nt | 0.64
O=C(CSc1nc2cc(Cl)ccc2s1)N1CCCc2ccccc21 | 2.0 | i | -3 | -6 | -9 | 58 | 2.6 | -14 | 0.69
COc1ccc(/C=N\NC(=O)c2ccccc2)cc1COc1ccccc1 | 1.3 | i | -2 | 2 | 4 | 0.5 | nt | -2 | nt
O=C(c1cccc(OC2CCN(C3CCCC3)CC2)c1)N1CCCCCCC1 | 3.4 | nt | 4 | 12 | 3 | 1.0 | 1.9 | nt | 0.69
O=C(O)CCCCCN1C(=O)/C(=C\c2ccc(-c3ccc(Cl)cc3)o2)SC1=S | 101 | i | -206 | 6 | -2 | 10 | 14 | 68 | 0.73
COc1ccc(N(CC(=O)Nc2c(C)n(C)n(-c3ccccc3)c2=O)S(=O)(=O)c2ccc(C)cc2)cc1 | 0.0 | i | -4 | 7 | 5 | 3.3 | -1.7 | -6 | 0.67

2 of the compounds above, as comma-separated lines:
Molecule,HNF4A DNA FP,FGF22 binding,Beta2AR agonist,rRNA inh HTS,rRNA inh HTS OD600,rRNA inh HTS RFP,UCH37 inh,ALR inh,Ecoli growth
Cc1ccc(N=Cc2nc(/C=C/c3cccc([N+](=O)[O-])c3)oc2O)cc1,7.0,i,2,9,8,-1.0,6.4,-7,0.76
CC1CN(c2ccnc3cc(Cl)ccc23)CC(C)O1 (stereo unspecified),-0.2,i,-3,-3,-3,-1.6,2.8,-1,0.69

Only part of the results is shown; rates above refer to the full screens.
